RE007 growth inh = qHTS Assay for Inhibitors of the HIV-1 protein Vpr. S. pombe RE007 Vpr strain, BacTiter-Glo ATP luminescence, 24 h; control for the full effect not named in the record. Potency, µM (doses to about 92.2 µM), for the others: top-dose activity change, negative = less growth. 360,000 compounds, 0.21% hits; active = well fitted falling curve with a large enough effect; inconclusive = small, poorly fitted or top-dose-only effect; inactive = no such curve, though single readings can be large or run the other way;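 further: on the % scale 0 is the no-effect control and ±100 the full control effect; nearly all actives have a fitted effect of over 50% in size; the assay follows cell death caused by Vpr and the record does not say whether a fall means rescue or toxicity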
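Fission yeast strain RE007, carrying one chromosomally integrated HIV-1 vpr copy, was seeded at OD 0.01 in PMG+AL medium with 23 nL pinned compound. After 24 h at 30 °C and 99% humidity, viability was read by BacTiter-Glo luminescence.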
Cruzain inh Det = qHTS Assay for Promiscuous and Specific Inhibitors of Cruzain (with detergent); 200,000 compounds, 0.43% hits; Cruzipain (Trypanosoma cruzi), P25779; Potency, µM, inactives show max response, negative = inhibition, usual class: inhibitors; purified cruzain, Z-FR-AMC fluorescence, 0.01% Triton; AID 1478, 2009; active means well fitted curve in the direction sought with a large enough effect; inconclusive means small, poorly fitted or top-dose-only effect, or another doubt; inactive means no such curve, though single readings can be large; an effect the other way counts as inactive or inconclusive;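 further: plate controls were neutral wells for no effect and buffer without enzyme for full effect; nearly all actives have a fitted effect of over 40% in size; top concentration of the series not given in the record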
Target sequence (P25779 123-467 limits assumed): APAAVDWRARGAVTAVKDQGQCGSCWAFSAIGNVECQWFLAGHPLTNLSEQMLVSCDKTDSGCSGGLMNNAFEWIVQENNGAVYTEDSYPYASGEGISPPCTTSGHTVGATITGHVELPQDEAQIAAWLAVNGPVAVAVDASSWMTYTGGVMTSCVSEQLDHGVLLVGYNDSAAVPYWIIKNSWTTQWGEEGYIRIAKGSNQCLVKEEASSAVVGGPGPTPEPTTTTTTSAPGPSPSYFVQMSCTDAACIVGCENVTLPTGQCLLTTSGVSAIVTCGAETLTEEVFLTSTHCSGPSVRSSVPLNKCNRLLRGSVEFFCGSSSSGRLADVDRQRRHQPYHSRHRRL
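Cruzain (1.5 nM) preincubated 15 min at RT with compound in 100 mM sodium acetate pH 5.5, 5 mM DTT, 0.01% Triton X-100. Reaction started with 2 uM Z-FR-AMC; AMC fluorescence (ex 360/em 450 nm) change over 60 s gave rate.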
MARV entry inh = qHTS for inhibitors of binding or entry into cells for Marburg Virus; Marburg virus pseudotyped entry inhibition, cell reporter; control for the full effect not named in the record; about a third of the inactives were read at about 46 µM; Potency, µM (series often up to 37.8 µM), for the others: top-dose activity change, negative = inhibition, usual class: inhibitors; 300,000 compounds, 1.8% hits; active = well fitted inhibition curve with a large enough effect; inconclusive = small, poorly fitted or top-dose-only effect, or effect the other way; inactive = flat fitted curve, though single readings scatter; tested in HEK293 cells; about a fifth of its hits are not listed in these tables; further: on the % scale 0 is the no-effect control and ±100 the full control effect; luciferase read-out
NS1 inh = qHTS Assay for Inhibitors of Influenza NS1 Protein Function; S. cerevisiae slowed by influenza A NS1, growth recovery by OD600; Potency, µM (highest dose often 46.1 µM), for inactives: top-dose activity, positive = more growth; 270,000 compounds, 0.4% hits; AID 2326, 2010; further: actives are rising curves; nearly all actives have a fitted effect of over 50% in size
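Compounds were scored for reversing the slow growth caused by influenza A NS1 in S. cerevisiae, measured by optical density at 600 nm. Assay medium contained 2% galactose at pH 6.0; NS1-free yeast of the same strain were the positive control.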
2A StopGo = High Throughput Screening for Foot and Mouth Disease Virus Antivirals; human cells with a luciferase reporter of 2A StopGo recoding; control for the full effect not named in the record; Potency, µM (highest dose often 57.9 µM), for the others: top-dose signal change, negative = less light; 410,000 compounds, 1.2% hits; AID 1159524, 2015; active = well fitted falling curve with a large enough effect; inconclusive = small, poorly fitted or top-dose-only effect; inactive = no such curve, though single readings can be large or run the other way; tested in HEK293T cells; further: on the % scale 0 is the no-effect control and ±100 the full control effect; nearly all actives have a fitted effect of over 45% in size; luciferase light after 4 h
SARS PLpro yeast = qHTS of Yeast-based Assay for SARS-CoV PLP; S. cerevisiae expressing SARS-CoV PLpro, growth rescue; control for the full effect not named in the record; 330,000 compounds, 0.19% hits; AID 485353, 2010; Potency, µM (doses to about 32.9 µM), for inactives: at the highest dose activity, positive = growth rescue; further: 0% is about no effect; nearly all actives have a fitted effect of over 55% in size; growth read by luminescence after 48 h
Lassa entry inh = qHTS for Inhibitors of binding or entry into cells for Lassa Virus; Lassa virus pseudotype entry inhibition, cell reporter; control for the full effect not named in the record; Potency, µM (top dose mostly 37.9 µM), for the others: top-dose activity change, negative = inhibition, usual class: inhibitors; AID 540256, 2011; 300,000 compounds, 1.2% hits; active means well fitted inhibition curve with a large enough effect; inconclusive means small, poorly fitted or top-dose-only effect, or effect the other way; inactive means flat fitted curve, though single readings scatter; tested in HEK293 cells; further: on the % scale 0 is the no-effect control and ±100 the full control effect; nearly all actives have a fitted effect of over 50% in size; luciferase read-out
Cruzain inh noDet = qHTS Assay for Promiscuous and Specific Inhibitors of Cruzain (without detergent); Cruzipain (Trypanosoma cruzi), P25779; purified cruzain, Z-FR-AMC fluorescence, no detergent; Potency, µM, without a hit: max response, negative = inhibition, actives largely listed as inhibitors; 200,000 compounds, 2.3% hits; AID 1476, 2009; active means well fitted curve in the direction sought with a large enough effect; inconclusive means small, poorly fitted or top-dose-only effect, or another doubt; inactive means no such curve, though single readings can be large; an effect the other way counts as inactive or inconclusive;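 further: plate controls were enzyme without inhibitor for no effect and buffer without enzyme for full effect; nearly all actives have a fitted effect of over 40% in size; top concentration of the series not given in the record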
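Purified cruzain at 1.5 nM, pre-incubated 15 min with compound at room temperature in 100 mM sodium acetate pH 5.5, 5 mM DTT, 0.00005% Triton X-100. Reaction started with 2 uM Z-FR-AMC; AMC fluorescence increase over 60 s gives rate.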
* hit, by the source's call; ? = inconclusive; / = no result given; & = joins results of further samples; [ ] = remark or other dose. Unless noted, the call rests on the fitted dose curve; in most records, active means well fitted rising curve with a large enough effect; inconclusive means small, poorly fitted or top-dose-only effect; inactive means no such curve, though single readings can be large or run the other way. Potency means the concentration at half of the fitted maximal effect.

SMILES	RE007 growth inh	Cruzain inh Det	MARV entry inh	NS1 inh	2A StopGo	SARS PLpro yeast	Lassa entry inh	Cruzain inh noDet
CCN1C[C@]2(C)CC[C@H](OC)[C@]34C2[C@H](OC(C)=O)[C@@]2(OCO[C@@]25C[C@H](OC)[C@H]2C[C@]3(O)C5[C@H]2OC)[C@@H]14	-2%	/	/	3%	-3%	0%	/	/
Cc1ccc2c(Cl)cc(Cl)c(OCC(=O)NCc3ccco3)c2n1	/	?	/	9%	/	-5%	/	8%
COc1ccc(C(CNC(=O)COc2ccccc2)N2CCOCC2)cc1 (stereo not given)	22%	/	-22%	/	-18%	2%	-5%	/
CSCC[C@H](NC(=O)OC(C)(C)C)c1nnc(SCC=C(C)C)o1	20%	-3.1%	-14%	8%	-8%	-3%	1%	0%
CCCc1nn(-c2cc(Cl)ccc2OC)c2c1C(=O)CCC2	12%	2.9%	/	7%	-23%	7%	/	9%
Cc1cc(C(=O)NNC(=O)c2ccc(Cl)c(S(N)(=O)=O)c2)c(C)o1	19%	/	-2%[46.1 µM]	/	-4%	2%	7%[46.1 µM]	/
O=c1c2c3c(sc2nc2n1CCCS2)CCCC3	?	?	12%	-73%	44%[activator]	-8%	?	26%
COc1ccc(C(C)NC(=O)c2ccoc2C)cc1OC (stereo not given)	2%	12%	-5%	3%	-15%	4%	-30%[14.3 µM]	-14%
CC(=O)N1CCOc2ccc(S(=O)(=O)NCc3ccc(C)cc3)cc21	5%	/	/	-15%	5%	18%	/	/
COc1cccc(NC(=O)CSc2nnc(CNC(=O)c3ccccc3F)o2)c1	2%	/	?	-5%	41%	0%	-3%[46.1 µM]	/
O=C(NCCNc1ccc([N+](=O)[O-])cc1)c1ccco1	-5%	/	2%[46.1 µM]	0%	2%	-1%	1%	/
COc1ccc2[nH]c(=O)c(CN(CC3CCCO3)S(=O)(=O)c3ccccc3)cc2c1 (stereo not given)	-16%	/	?	-15%	-9%	-1%	/	/
Cc1cccc(C(=O)Nc2ccc(C(=O)N3CCCCC3C)cc2)c1 (stereo not given)	-11%	/	-18%	-35%	66%[activator]	0%	-4%	/
Cc1ccc(C)c(NC(=O)CN(C)C(=O)Cc2coc3cc(C)c(C)cc23)c1	2%	/	1%[46.1 µM]	/	-15%	3%	-12%	/
CC(C)(C)C1CCc2c(sc(NC(=O)C3CCCO3)c2C(N)=O)C1 (stereo not given)	19%	-9.7%	?	-24%	-8%	-9%	18µM*	?
NC(N)=NN=C1CCCCCCCCCCC1	0%	/	?	5%	-27%	1%	1%[46.1 µM]	/
Cc1cccn2c(CN(C)CCC3CCCCO3)c(C(=O)N3CCCCC3)nc12 (stereo not given)	2%	/	-19%[46.1 µM]	-1%	-19%	9%	4%	/
COc1ccc(CCNC(=O)CSc2nncn2N)cc1OC	-2%	2.1%	0%	6%	/	12%	13%	-4%
Cc1ccc(C(=O)C(NC(=O)c2ccco2)N2CCOCC2)cc1 (stereo not given)	0%	-5.1%	-2%	7%	42%[activator]	6%	-19%	-3%
Cc1ccc(C)c(NC(=O)CN(C)C(=O)c2ccc(-c3cccc(C(F)(F)F)c3)o2)c1	-2%	/	?	/	-21%	-2%	-3%	/
O=C(NC(CO)c1ccccc1)c1ccco1 (stereo not given)	-11%	3.8%	-1%	-2%	-13%	-1%	0%	1%
COc1ccc(-c2nc3c(C#N)c[nH]n3c2NC2CCCC2)cc1	/	-0.1%	-4%[46.1 µM]	/	-8%	/	3%[46.1 µM]	-18%
CC1(C)Cc2ccccc2C(NNC(=O)c2cccnc2)=N1	1%	-3.6%	2%	3%	-18%	19%	4%	-6%
COCCc1ncc(CN2CCC(C(=O)Nc3ccc(-n4cccn4)cc3)CC2)cn1	2%	/	?	-2%	21%	-3%	2%	/
COc1ccc(-n2c(C)nc3cc(C(=O)NC4CCCCCC4)ccc32)cc1	/	-1.6%	/	/	28%	/	5%[46.1 µM]	-11%
CCCCN(C)C(=O)C1CCC(CNS(=O)(=O)c2ccc(Cl)cc2)CC1 (stereo not given)	/	-2.3%	/	/	-25%	/	-23%[46.1 µM]	?
CCCCN(Cc1ccccc1)S(=O)(=O)c1ccc2c(c1)n(C)c(=O)c(=O)n2C	5%	/	/	8%	0%	4%	/	/
COCCn1nnnc1CN1CCC(NC(=O)Nc2cccc(OC)c2)CC1	18%	1.9%	4%	-1%	16%	6%	13%	-5%
CCN(CC)CC#CCC(C)(c1ccccc1)c1ccccc1	-5%	2.2%	?	-31%	?	-5%	?	-6%
O=[N+]([O-])c1ccc(S(=O)(=O)N(CC(O)CN2CCCCC2)c2ccccc2)cc1 (stereo not given)	0%	/	5%[46.1 µM]	2%	3%	1%	/	/
COc1ccccc1NC(=O)CSc1nc(N)cc(N)n1	11%	5.4%	7%	?	1%	0%	33%	-4%
COc1ccc(OC)c(NC(=O)c2cc3c(=O)oc4ccccc4c3s2)c1	/	0.2%	19%[46.1 µM]	/	-5%	/	16%[46.1 µM]	7%
CC(C)(C)NC(=O)NC(=O)COC(=O)C1(C)CC1(Cl)Cl (stereo not given)	-11%	/	17%[46.1 µM]	-3%	1%	-1%	-8%	/
CCOC(=O)CSC1=C(C#N)C(c2sccc2C)CC(=O)N1 (stereo not given)	6%	1.1%	?	-3%	?	-4%	?	1%
CSC1=NC2(CCN(C(=O)NC3CCCCC3)CC2)N=C1c1ccc(C(C)(C)C)cc1	/	-1.2%	/	/	-9%	/	-1%[46.1 µM]	7%
O=C(Nc1cccc2c1CCCC2)c1ccc(Br)o1	-13%	-1.2%	0%	-64%	-21%	-22%	-3%	0%
O=C1NC(=O)N(c2ccc3c(c2)OCO3)C(=O)/C1=C/c1ccc(N2CCCCC2)o1	11%	-15%	-16%	2%	-10%	-11%	-19%	-11%
O=C(N/N=C\c1cn(-c2ccccc2)nc1-c1ccccc1)c1ccc(Br)o1	-14%	2.5%	?	19%	?	-12%	?	25µM*
Cc1ccc(NNC(=O)c2cccs2)cc1Cl	35%	/	6.3µM*	-67%	-12%	-6%	?	/
Cc1nc2ncnn2c(C)c1CCC(=O)NC(C)c1ccc2c(c1)OCCO2 (stereo not given)	-12%[3.69 µM]	1.1%	-3%	3%	-12%	0%	-8%	-10%
CC(C(=O)Nc1ccccn1)(c1ccccc1)c1ccccc1	3%	/	/	5%	-29%	-3%	/	/
COC(=O)Cn1c(=NC(=O)c2ccc([N+](=O)[O-])s2)sc2cc(Br)ccc21	/	-4.2%	0%	-32%	/	-27%	0%	10µM*
CCC1(C2=CCCCC2)C(=O)NC(=S)N=C1N (stereo not given)	4%	/	7%[46.1 µM]	/	7%	/	-2%[46.1 µM]	/
CC(C)(C)c1ccccc1OCCCCN1CCCC1	14%	-4.3%	?	-7%	-29%	3%	-25%	10%
CCN1CCN(Cc2ccccc2C)CC1	2%	3.2%	6%	16%	3%	-2%	-4%	-8%
CC1C(C)C(O)(c2ccccc2)CCN1C (stereo not given)	2%	-0.8%	24%	12%	16%	19%	5%	-2%
Cc1noc(NS(=O)(=O)c2ccc(NC(=O)Cc3ccc([N+](=O)[O-])cc3)cc2)c1C	3%	/	11%[46.1 µM]	10%	6%	5%	8%[46.1 µM]	/
CC1CCN(C(=O)CNC(=O)Cc2ccccc2)CC1	12%	/	/	-3%	36%[activator]	-2%	/	/
CC(NC(=O)CN(Cc1ccccc1)S(=O)(=O)c1ccccc1)c1cccnc1 (stereo not given)	8%	/	-29%	/	-9%	4%	-21%	/
Cc1ccc(S(=O)(=O)N2CCN(CCc3ccccc3)CC2)c(C)c1	5%	/	?	-8%	?	0%	-5%	/
CC1(C(=O)Nc2ccc3ccccc3c2)CC1(Br)Br (stereo not given)	-17%	/	9%[46.1 µM]	-8%	8%	-3%	-2%	/
Cc1oc(-c2cccc(Cl)c2)nc1CN1CCC(C(=O)NCc2ccc(F)cc2)CC1	/	-0.9%	-8%[46.1 µM]	/	-25%	/	-9%[46.1 µM]	0%
CCC(=NCc1cccnc1)c1c(O)n(-c2ccc(Cl)cc2)c(=O)[nH]c1=O	-2%	/	8%	-2%	-8%	-1%	-17%	/
Cc1ccccc1NC(=O)c1c(C)cc(=O)oc1C	0%	/	/	2%	-10%	2%	/	/
CCN(C(=O)COC(=O)Cn1c(C)csc1=O)c1c(N)n(Cc2ccccc2)c(=O)[nH]c1=O	25%	/	1%[46.1 µM]	/	-1%	/	1%	/
CCc1ccccc1NC(=O)N1CCN(C(=O)c2nsc3ccccc23)CC1	/	-3.5%	/	/	-14%	/	-5%[46.1 µM]	1%
COc1ccc(NC(=O)C2CCCN(S(=O)(=O)c3cn(C)cn3)C2)cc1Cl (stereo not given)	/	-0.8%	/	/	10%	/	1%[46.1 µM]	-7%
COc1ccccc1NCC(=O)c1ccc(C)c(C)c1	3%	/	12%[46.1 µM]	-3%	-12%	0%	19%[46.1 µM]	/
O=C(N/N=C/c1cccnc1)c1ccccc1OCc1ccc(Br)cc1	21%	/	?	/	?	-1%	4%	/
O=C(c1ccc(F)cc1)N1CCC(N2CCCCCC2)CC1	-3%	-3.5%	-1%&-1%	-1%[9.22 µM]	-17%	7%	-1%	-4%
The listing continues:
SMILES	RE007 growth inh	Cruzain inh Det	MARV entry inh	NS1 inh	2A StopGo	SARS PLpro yeast	Lassa entry inh	Cruzain inh noDet
CCN(CC)C(=O)c1sc2c(c1C)c(=O)n(-c1ccc(C)c(C)c1)c(=O)n2Cc1cccc(Cl)c1	/	-3.3%	/	/	-9%	/	-1%[46.1 µM]	?
CCOc1ccc(C(=O)Nc2ccc3nc(SCC(=O)N4CCc5ccccc54)sc3c2)cc1	/	-1.6%	?	/	3%	/	-1%[46.1 µM]	-2%
CC(=O)c1c(N)c(C#N)c(C)n1-c1ccc(Br)cc1	15%	1.1%	?	3%	-9%	-1%	-6%	1%
CN(C(=O)c1coc(=O)c2ccccc12)c1ccc(Br)cc1	22%	/	-2%	0%	-14%	3%	-21%	/
CC1CCCCN1C(=O)C12CCC(C)(C(=O)C1)C2(C)C (stereo not given)	1%	1.7%	0%	4%	3%	5%	-26%	0%

High-throughput results from PubChem BioAssay.
